From PubChem
TRPML1 inh = blocks the human TRPML1 channel; Q9GZU1; TRPML1-inducible cells, Ca2+ dye fluorescence, FDSS; stronger effect = lower value; inhibition of EC80 agonist-evoked calcium signal; activity change, negative = inhibition, % (concentration not given with the values); hit rate 0.02% among 390,000; AID 624415; in the data active means activity change below about -50%; inconclusive means about -30% to -50%; inactive means above about -30%;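 also: stimulus is agonist 54-4 at its EC80 concentration; % is scaled to controls: 0 for no effect and ±100 for the full control effect; compound concentration not given in the record; the text of the record puts the active cut at -80%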
Target sequence (Q9GZU1 whole entry, looked up): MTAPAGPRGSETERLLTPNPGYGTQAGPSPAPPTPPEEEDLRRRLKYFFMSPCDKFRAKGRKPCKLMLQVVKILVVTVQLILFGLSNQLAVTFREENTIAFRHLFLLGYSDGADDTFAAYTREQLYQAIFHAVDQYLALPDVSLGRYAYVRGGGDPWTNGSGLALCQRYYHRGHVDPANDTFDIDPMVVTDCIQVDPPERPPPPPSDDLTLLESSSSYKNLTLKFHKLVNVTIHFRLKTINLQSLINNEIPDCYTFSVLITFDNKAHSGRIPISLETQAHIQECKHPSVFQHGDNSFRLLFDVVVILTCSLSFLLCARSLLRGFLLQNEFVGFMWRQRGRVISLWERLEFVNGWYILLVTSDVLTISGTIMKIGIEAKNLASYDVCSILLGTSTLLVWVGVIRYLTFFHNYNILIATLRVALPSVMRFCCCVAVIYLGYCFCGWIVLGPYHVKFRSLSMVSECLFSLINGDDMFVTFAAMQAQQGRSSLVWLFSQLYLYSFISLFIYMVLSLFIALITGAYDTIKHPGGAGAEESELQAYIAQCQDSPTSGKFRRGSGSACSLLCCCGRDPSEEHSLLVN
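TRPML1-DL cells, Tet-induced overnight (~16 h, 37 °C) at 1,500 cells/well, were loaded with Ca8 no-wash dye plus quencher for 45-90 min at room temperature. Compounds were pinned during FDSS kinetic reading; agonist 54-4 at EC80 (4 uM final) then added.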
gsp antagonist = antagonists of gsp mutant (McCune-Albright syndrome); gsp-mutant cells, cAMP HTRF, 30 min; control for the full effect not named in the record; Potency, µM (highest dose often 76.9 µM), inactives show at the highest dose activity change, negative = inhibition, most hits filed as inhibitors; hit rate 0.4% among 340,000; AID 624288; active = falling curve of any shape with a large fitted effect; inconclusive = falling curve, mostly with a smaller effect; inactive = flat or rising curve; cell line not stated here;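 also: intracellular cAMP measured with PDE inhibitor Ro 20-1724 present during compound exposure; potency is read from the fitted curve at half-maximal effect; % is scaled to controls: 0 for no effect and ±100 for the full control effect; nearly all actives have a fitted effect of over 65% in size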
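HTRF cAMP read-out (cAMP-d2 plus anti-cAMP antibody-K in lysis buffer, 30 min RT). Before lysis, cells are exposed to compounds with […] for 30 min at 37C in DPBS containing Ca/Mg, BSA and Tween 20.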
Menin MLL FP FL = displaces fluorescein MLL peptide from human menin. Fluorescence polarization, fluorescein-MLL peptide displacement from menin. FP activity change, % at 61.4 µM. 290,000 tested, under 10 active; inconclusive = falling polarisation curve, or a change in total fluorescence; inactive = total fluorescence flat and polarisation flat or rising; no compound was filed as active; the % refers to the polarisation; negative = inhibition;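 also: % of control where 0% means no effect; inhibitors lower the polarisation; unlabelled MLL peptide was the positive control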
ClpP mod = qHTS Assay for Activators of ClpP | ATP-dependent Clp protease proteolytic subunit (Bacillus subtilis (strain 168)), P80244 | purified B. subtilis ClpP, FRET peptide cleavage, 20 min | Potency, µM (top dose mostly 57.5 µM), inactives show top-dose activity change, negative = active | hit rate 1.9% among 340,000; active = well fitted falling curve with a large enough effect; inconclusive = small, poorly fitted or top-dose-only effect; inactive = no such curve, though single readings can be large or run the other way; also: potency is read from the fitted curve at half-maximal effect; the source files actives as falling curves though it sought activators and does not explain the sign; nearly all actives have a fitted effect of over 65% in size; many hits overshoot -100%
Target sequence (P80244 whole entry, looked up): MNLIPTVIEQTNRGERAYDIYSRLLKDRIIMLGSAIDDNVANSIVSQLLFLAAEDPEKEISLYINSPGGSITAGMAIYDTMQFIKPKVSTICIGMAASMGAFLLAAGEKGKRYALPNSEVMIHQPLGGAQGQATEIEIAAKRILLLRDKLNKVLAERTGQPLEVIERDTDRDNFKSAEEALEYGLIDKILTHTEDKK
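Purified B. subtilis ClpP, 10 microg/mL final in Tris/HCl pH8 with KCl, BSA, glycerol and Tween-20, cleaved an Abz/nitrotyrosine-quenched decapeptide. Fluorescence (ex 320, em 430) was read at 0 and 20 min at room temperature. Delta was normalized to 5.8 microM ADEP and DMSO/no-enzyme controls.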
gsp ag = activates gsp, the McCune-Albright syndrome mutation. AID 624287. Potency, µM (titrated, usually from 76.9 µM), without a hit: top-dose activation (cAMP increase), actives largely listed as activators. hit rate 0.13% among 340,000. gsp mutant cells, cAMP HTRF, 30 min; control for the full effect not named in the record; active = well fitted activation curve with a large enough effect; inconclusive = small, poorly fitted or top-dose-only effect, or another doubt; inactive = no such curve, though single readings can be large or run the other way; cell line not stated here;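 also: phosphodiesterase inhibitor Ro 20-1724 added with compounds to block cAMP breakdown; potency is read from the fitted curve at half-maximal effect; nearly all actives have a fitted effect of over 60% in size; about a fifth of the inactives were tested at one dose only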
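Cells in DMEM/10% FBS with G418 were pretreated with compounds in DMSO plus […] (300 uM stock) for 30 min at 37C. cAMP was measured by HTRF (cAMP-d2 plus anti-cAMP antibody-K) after 30 min at room temperature.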
TRPML1 ag = human mucolipin-1 channel agonism; Q9GZU1; TRPML1-expressing cells, Ca2+ dye fluorescence, FDSS; host cell line not named in the record; reference of the full effect not given here; activation, % (test concentration not listed); hit rate 0.12% among 410,000; AID 624414; in the data active = activation above about 50%; inconclusive = about 30% to 50%; inactive = below about 30%; also: 0% is about no effect; the text of the record puts the active cut at 80%
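Kinetic FDSS Ca2+ read in Tet-induced TRPML1-DL cells (ABD Ca8 dye plus quencher, 45-90 min RT loading): baseline, then compound, then 110 s agonist window; EC80 agonist 54-4 at 4uM final added afterwards for a 110 s antagonist window.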
* hit, by the source's call; ? = inconclusive; / = no result given; & = joins results of further samples; [ ] = another dose, or the depositor's remark.

SMILES	TRPML1 inh	gsp antagonist	Menin MLL FP FL	ClpP mod	gsp ag	TRPML1 ag
CCOc1cc(C(=O)NCCOC)ccc1OC	?	8.1%	7.4	-2.9%	2.7%	-0.9
COc1ccc(NC(=O)/C(=C\c2cc(OC)c(OC)cc2[N+](=O)[O-])NC(=O)c2ccccc2)cc1	3.6	-3.9%	1.4	0.1%	9.8%	1.3
O=c1c2ccccc2nnn1CSc1nnc(-c2ccc3c(c2)OCO3)o1	40.5	0.1%	3.7	-1.0%	11.2%	1.0
Cc1cc(C)n(C(C)CNS(=O)(=O)c2ccc(Cl)cc2)n1 (configuration not stated)	-12.0	6.4%	-0.4	/	11.3%	-0.5
O=C1C(Cl)=C(N2CCOCC2)C(=O)N1c1ccccc1Cl	7.3	0.2%	0.5	-1.4%	-3.2%	0.7
Nc1nc(-c2ccccc2)c(-c2ccc([N+](=O)[O-])cc2)s1	-11.0	?	?	-0.6%	-10.0%	14.7
O=C(CN1CCCN(S(=O)(=O)c2ccc(F)cc2)CC1)Nc1cccc(F)c1	12.0	-5.5%	0.0	/	-17.2%[15.4 µM]	-0.7
Cc1ccn2cc(CCNS(=O)(=O)c3ccc4c(c3)CCCC4)nc2c1	-10.6	0.9%	3.1	-16.9%	6.5%	-0.2
COc1ccc(NC(=S)NC(C)c2ccncc2)cc1OC (configuration not stated)	-7.5	7.6%	0.1	/	-1.4%	1.0
O=C(Cc1n[nH]c(=O)c2ccccc12)OCC(=O)c1ccccc1	-1.2	1.5%	/	0.7%	21.4%	-0.3
Nc1ccccc1SCC(=O)Nc1nccs1	-7.5	8.6%	-2.0	-1.5%	-4.2%[15.4 µM]	-1.4
O=C(c1cc(COc2ccc(F)c(F)c2)on1)N1CCOCC1	5.1	6.3%	/	-4.0%	1.7%	0.1
Cc1cccc(-n2nc(C)c(C(=O)N3CCN(c4ccccc4)CC3)c2-n2cccc2)c1	-19.1	/	/	-1.2%	/	71.4*
c1ccc(OCCSc2nnnn2-c2ccccc2)cc1	2.6	?	0.1	1.5%	-52.7%[inhibitor]	-0.1
COc1ccccc1NC(=O)Cn1c(SCC(=O)NCc2ccccc2)nc2ccccc21	-4.1	/	/	-4.1%	/	-1.0
CCOc1cc(/C=N/n2c(C)nc3sc(C)c(C)c3c2=O)ccc1O	-13.1	4.5%	-0.3	-1.7%	-9.0%	1.4
CCOc1ccc(N(CC(=O)NC2CCCC2)C(=O)CCC(=O)Nc2ccccn2)cc1	-10.6	5.4%	4.5	-1.6%	1.2%	-0.7
Cc1ccc(-c2noc(CCC(=O)NCCCN3CCN(c4ccc(F)cc4)CC3)n2)cc1	-13.4	-1.9%	1.9	-0.8%	5.3%	-0.2
COc1ccc(NC(=O)[C@H](NC(=O)[C@@H]2Cc3ccccc3CN2)c2ccccc2)cc1	?	-8.9%	/	1.3%	1.9%	0.4
CCOCCCNC(=O)C(c1ccccc1)N(Cc1cccs1)C(=O)c1ccccc1O (configuration not stated)	-9.2	-31.1%	0.2	/	-5.7%[15.4 µM]	0.8
Cc1ccc(N2C(=O)c3cccc4c(Oc5ccccc5[N+](=O)[O-])ccc(c34)C2=O)c(C)c1	18.9	-15.3%	8.7	-6.9%	-17.2%	0.1
Cn1nnnc1SCCNC/C=C/c1ccccc1	-1.3	-3.1%	-0.5	-0.1%	-15.8%	0.0
CN(CC(=O)NC1CCCCCC1)S(=O)(=O)c1ccc2c(c1)n(C)c(=O)c(=O)n2C	25.5	-0.6%	1.3	5.0%	6.8%	0.7
COC(=O)C1=C(C)OC(N)=C(C#N)C1c1cc2cc(C)ccc2nc1Cl (configuration not stated)	7.1	-11.3%	1.5	/	-8.3%[15.4 µM]	0.9
[O-]/[N+](=C/c1ccc(F)cc1)c1ccccc1	9.5	9.6%	-2.5	0.3%	-15.4%	-0.6
O=C(COc1ccc(Nc2ccccc2)cc1)OCC(=O)N1CCCCC1	10.4	3.3%	1.6	-0.5%	-2.4%	1.0
Cc1ccc(NC(=O)CSc2cc(=O)n(C)c3ccc(Cl)cc23)c(Br)c1	10.5	/	/	-14.7%	/	-0.7
O=C(Nc1ccc(C(F)(F)F)cc1)c1ccccc1-n1cnnn1	5.0	-6.5%	/	-3.3%	-20.2%	-0.1
O=C(/C=C/c1ccco1)Nc1ccc2nc3n(c(=O)c2c1)CCCC3	-2.7	3.7%	19.1	-3.8%	-24.8%	1.3
CCCn1nc2cc(C(=O)N(CC)c3ccc(OC)cc3)ccc2c1OCC	-1.8	-4.1%	2.6	4.5%	/	-0.5
C[C@]12C[C@H](O)[C@H]3[C@@H](CCC4=CC(=O)CC[C@@]43C)[C@@H]1CC[C@@H]2C(=O)CO	13.9	-2.6%	2.4&-2.6	1.2%	/	-0.3
Cc1ccc(Cn2c(=N)c(C(=O)NCC3CCCO3)cc3c(=O)n4cccc(C)c4nc32)cc1 (configuration not stated)	-3.6	4.1%	-2.3	4.0%	?	-1.0
CCOc1cc(N2CCOCC2)c(OCC)cc1NC(=O)COC(=O)c1c(CC)noc1C	0.8	2.8%	/	/	30.0%	1.0
O=[N+]([O-])c1ccc(C(O)CSC(=S)N2CCCCC2)cc1 (configuration not stated)	-11.0	8.1%	-0.2	/	14.7%	0.1
O=C(CSc1nnnn1-c1ccccc1Cl)Nc1ccc2c(c1)OCCO2	-2.3	-10.0%	-4.3	-2.0%	-24.8%	0.2
COCCNC(=O)c1c(CSc2ccccc2)noc1C(=O)NCc1ccccc1	37.4	-10.3%	3.7	-2.1%	?	-1.1
COc1cc(C(=O)NCC(=O)N/N=C/c2cccs2)cc(OC)c1OC	2.5	-13.3%	-0.6	1.0%	?	0.2
COc1ccccc1C1(CC(=O)O)CCOC(C(C)C)C1 (configuration not stated)	29.9	-1.1%	1.8	-4.6%	-12.4%	0.6
CCOC(=O)CCc1c(C)nc2c(-c3ccccc3)c(C)[nH]n2c1=O	-1.3	/	/	-28.4%	/	-0.3
O=C(Oc1ccc[nH]c1=O)c1cc([N+](=O)[O-])cc([N+](=O)[O-])c1	-12.4	-4.2%	0.7	-9.1%	12.0%	0.2
COc1ccc(S(=O)(=O)N(C)C)cc1NCC(=O)Nc1ccc(F)cc1F	8.6	-23.4%	-2.9	1.1%	-2.1%[15.4 µM]	-0.9
COc1cc(OC)cc(-c2nc3nc(C)c(CCC(=O)Nc4ccc(C)c(C)c4)c(C)n3n2)c1	6.5	/	/	0.0%	/	-0.8
Cc1cccc(NC(=O)CO/N=C/c2ccc3c(c2)OCO3)c1	-4.0	-12.9%	2.9	-4.1%	-28.2%	4.8
O=C(Nc1ccc(N2CCOCC2)cc1N1CCOCC1)c1ccco1	-2.7	-11.4%	0.1	0.4%	-39.5%[inhibitor]	-0.4
CCn1c(NC(=O)C2CCCCC2)nc2ccccc21	2.3	12.6%	2.7	0.2%	-30.3%[inhibitor]	3.3
CSCCC(NC(=O)c1ccc(Cl)c([N+](=O)[O-])c1)C(=O)N1CCN(C/C=C/c2ccccc2)CC1 (configuration not stated)	-3.8	-11.8%	/	-3.8%	6.6%	1.0
CCN(CC(=O)NCC1CCCO1)S(=O)(=O)c1ccc(Cl)cc1 (configuration not stated)	-14.0	5.4%	/	-1.9%	?	0.2
O=C(COC(=O)c1ccccc1NCCO)NCCc1ccccc1	-13.7	-2.0%	/	14.1µM*	2.2%	-0.4
COc1ccc(CCN2C(=O)N(c3ccc(OC)cc3)C(=O)C2CC(=O)Nc2ccc(OC)cc2)cc1 (configuration not stated)	-4.2	-5.4%	-1.5	/	-2.6%[15.4 µM]	2.1
O=c1c2ccccc2oc2ccc(NCCCn3ccnc3)cc12	12.9	-10.7%	?	-2.0%	/	1.3
O=C(CCCCCN1C(=O)c2cccc3cccc(c23)C1=O)N1CCOCC1	1.1	0.6%	-0.8	-1.9%	5.1%[15.4 µM]	-0.2
Cc1c(C(=O)Nc2ccc(S(N)(=O)=O)cc2)oc2ccc(Cl)cc12	6.8	3.1%	1.9	/	-1.1%[15.4 µM]	1.2
CCOC(=O)N1CCN(Cc2nc3c(c(=O)[nH]c(=O)n3C)n2Cc2ccccc2C)CC1	0.9	-1.6%	3.9	-0.8%	10.8%	-0.3
Nc1cc(=O)[nH]c(SCC(=O)Nc2ccc(F)c(Cl)c2)n1	6.8	0.2%	1.1	1.1%	?	-0.1
COc1ccc(CNC(=O)CCCn2c(=S)[nH]c3cc4c(cc3c2=O)OCO4)cc1	3.1	11.9%	/	-9.2%	?	-0.5
CCOc1ccc(C(=O)N/N=C(/C)C2C(=O)c3ccccc3C2=O)cc1	-1.8	-7.5%	5.6	0.9%	-11.6%	-1.0
COc1ccc(C2C(C(=O)Nc3ccc(C)cc3C)=C(C)Nc3nc(SCc4cccc(C)c4)nn32)c(OC)c1 (configuration not stated)	-7.5	/	/	0.0%	/	-0.5
COc1ccc(CC(=O)NC2CCN(CC(=O)Nc3ccc4c(c3)OCCO4)CC2)cc1OC	38.8	8.6%	1.2	-5.3%	7.5%	-0.4
COc1ccc(Nc2nc(C(=O)NCCCN3CCOCC3)cs2)cc1	8.9	-5.0%	0.5	-4.2%	-16.1%	-0.4
Cc1ccc2c(=O)c(C(=O)c3ccc(F)cc3)cn(CC(=O)NC3CCCCC3)c2n1	-15.9	/	/	-3.1%	/	0.2

(continued)
SMILES	TRPML1 inh	gsp antagonist	Menin MLL FP FL	ClpP mod	gsp ag	TRPML1 ag
CCc1noc(C)c1C(=O)N(CC(C)C)c1c(N)n(Cc2ccccc2)c(=O)[nH]c1=O	-0.5	8.9%	/	-4.7%	-87.4%[inhibitor]	-0.4
COCC(=O)OCC(=O)N1N=C(c2ccc(Cl)cc2)CC1c1ccco1 (configuration not stated)	-12.4	-8.4%	6.1	0.2%	26.6%[15.4 µM]	1.6
COc1cc(NC(=S)Nc2ncccc2C)cc(OC)c1OC	-14.1	-2.5%	3.5	-4.6%	?	0.2
CC(O)C(NC=C1C(=O)OC(C)(C)OC1=O)C(=O)O (configuration not stated)	3.6	5.3%	1.7	/	13.9%[15.4 µM]	1.3
Cc1nn(C)c(C)c1C(C)NC(=O)c1cc(COc2cncc(Cl)c2)on1 (configuration not stated)	8.3	8.5%	-1.9	1.6%	30.7%	-0.9
COc1ccc(CN(C(=O)c2ccc(-c3ccccc3)[nH]2)C(C(=O)NC(C)(C)C)c2ccncc2)cc1 (configuration not stated)	-2.0	?	4.1	/	-40.7%[inhibitor]	2.6
CC1=C(C(=O)OCCOc2ccccc2)C(c2ccc(C)o2)C2=C(CC(C)(C)CC2=O)N1 (configuration not stated)	1.1	-16.1%	3.9	-10.6%	-22.5%	0.2
